Bioassay records deposited in PubChem BioAssay by National Center for Advancing Translational Sciences (NCATS).
TRPML1 ag: activates the human TRPML1 channel; AID 624414; actives 0.12% (n = 410,000); activation, % (test concentration not listed); TRPML1-expressing cells, Ca2+ dye fluorescence, FDSS; host cell line not named in the record; reference of the full effect not given here; in the data active = activation above about 50%; inconclusive = about 30% to 50%; inactive = below about 30%; further: 0% is about no effect; the text of the record puts the active cut at 80%
Target sequence (Q9GZU1 whole entry, looked up): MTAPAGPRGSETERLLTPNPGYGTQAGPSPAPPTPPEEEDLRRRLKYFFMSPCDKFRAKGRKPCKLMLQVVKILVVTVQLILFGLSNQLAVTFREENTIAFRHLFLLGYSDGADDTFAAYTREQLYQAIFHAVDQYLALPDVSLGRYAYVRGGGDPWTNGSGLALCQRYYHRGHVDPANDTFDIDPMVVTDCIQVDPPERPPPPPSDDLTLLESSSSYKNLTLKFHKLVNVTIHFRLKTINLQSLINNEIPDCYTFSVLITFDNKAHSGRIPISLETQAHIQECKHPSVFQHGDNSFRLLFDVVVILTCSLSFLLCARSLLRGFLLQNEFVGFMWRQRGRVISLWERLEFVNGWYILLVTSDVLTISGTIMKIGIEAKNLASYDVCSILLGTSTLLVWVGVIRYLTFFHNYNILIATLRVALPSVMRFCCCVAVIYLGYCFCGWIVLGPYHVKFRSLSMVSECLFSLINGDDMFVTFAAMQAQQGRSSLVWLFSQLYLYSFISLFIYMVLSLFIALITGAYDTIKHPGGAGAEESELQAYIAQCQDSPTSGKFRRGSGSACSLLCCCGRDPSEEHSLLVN
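Kinetic FDSS Ca2+ read in Tet-induced TRPML1-DL cells (ABD Ca8 dye plus quencher, 45-90 min RT loading): baseline, then compound, then 110 s agonist window; EC80 agonist 54-4 at 4uM final added afterwards for a 110 s antagonist window.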
CtBP-E1A blk: CtBP/E1A binding inhibition; activity change, % (no concentration beside the values); AlphaScreen GST-E1A/His-CtBP binding, 1536-well; hits give low values; control for the full effect not named in the record; actives 0.49% (n = 340,000); in the data active means activity change below about -65%; inconclusive means about -30% to -65%; inactive means above about -30%; further: on the % scale 0 is the no-effect control and ±100 the full control effect; compound concentration not given in the record
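GST-E1A and His-tagged CtBP (125 nM each as 5X stock) were preincubated with pin-transferred compound for 2 h at 37 °C in the dark, then glutathione donor and nickel acceptor beads were added for 1 h before AlphaScreen reading.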
D2 agonist: agonists of human D2 dopamine receptor (beta-arrestin) | activation, % (no concentration beside the values) | actives 0.084% (n = 360,000) | DiscoveRx PathHunter D2 beta-arrestin, luminescence, 90 min; 100% = 57 uM dopamine signal; in the data active = activation above about 40%; inconclusive = about 15% to 40%; inactive = below about 15%; further: compound concentration not given in the record; the text of the record calls up to 30% inactive
Target sequence (P14416 whole entry, looked up): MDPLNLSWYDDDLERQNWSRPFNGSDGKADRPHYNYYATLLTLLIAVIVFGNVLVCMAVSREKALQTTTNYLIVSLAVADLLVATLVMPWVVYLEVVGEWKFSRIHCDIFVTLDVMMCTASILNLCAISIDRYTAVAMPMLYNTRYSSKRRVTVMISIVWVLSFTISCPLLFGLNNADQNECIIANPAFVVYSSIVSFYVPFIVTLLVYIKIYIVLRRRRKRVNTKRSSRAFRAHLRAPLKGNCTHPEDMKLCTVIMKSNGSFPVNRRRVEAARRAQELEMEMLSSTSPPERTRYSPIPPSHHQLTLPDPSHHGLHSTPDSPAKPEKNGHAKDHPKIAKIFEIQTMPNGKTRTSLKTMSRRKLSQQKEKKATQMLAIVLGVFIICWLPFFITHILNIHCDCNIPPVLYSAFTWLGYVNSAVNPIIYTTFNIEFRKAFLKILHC
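Agonist mode: compounds alone added to overnight-plated D2 PathHunter cells for 90 min at 37 C, with 57 uM final dopamine (EC100) defining full response. Beta-arrestin recruitment detected by chemiluminescent reagent, read after 1 h at ambient temperature.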
PINK1 expr mod: PINK1 expression modulation; PINK1 immunofluorescence, high-content cytometry, 24 h; Potency, µM (series often up to 76.6 µM), without a hit: top-dose activation (PINK1 increase), hits mostly activators; actives 0.2% (n = 410,000); active = well fitted activation curve with a large enough effect; inconclusive = small, poorly fitted or top-dose-only effect; inactive = flat fitted curve, though single readings scatter; cell line not stated here;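 further: potency means the concentration at half of the fitted maximal effect; % of control where 0% means no effect; nearly all actives have a fitted effect of over 65% in size; a mitochondrial uncoupler was the plate control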
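A stable cell line was treated with compounds at 5 concentrations for 24 hours, with CCCP as control. PINK1 levels and mitochondrial localization were measured by immunofluorescence with mitochondrial, cell and nuclear markers after fixation, read by laser-scanning cytometry.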
Six1-Eya2 blk: inhibitors of human Six1/Eya2 interaction. AlphaScreen GST-Six1/His-Eya2 binding, biochemical; hits give low values; control for the full effect not named in the record. activity change, % (test concentration not listed). actives 0.56% (n = 360,000). AID 651725; in the data active = activity change below about -65%; inconclusive = about -30% to -65%; inactive = above about -30%; further: on the % scale 0 is the no-effect control and ±100 the full control effect; compound concentration not given in the record
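AlphaScreen with GST-Six1 and His-Eya2 (5X mix: 250 nM and 500 nM), glutathione donor and nickel acceptor beads; buffer 50 mM Tris pH 8.0, 300 mM NaCl, 1 mM TCEP; 1 h at 37 C in the dark.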
TRPML1 blocker: blocks the human TRPML1 channel | Q9GZU1 | TRPML1-inducible cells, Ca2+ dye fluorescence, FDSS; hits give low values; inhibition of EC80 agonist-evoked calcium signal | activity change, negative = inhibition, % (concentration not given with the values) | actives 0.02% (n = 390,000) | AID 624415; in the data active means activity change below about -50%; inconclusive means about -30% to -50%; inactive means above about -30%;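 further: stimulus is agonist 54-4 at its EC80 concentration; on the % scale 0 is the no-effect control and ±100 the full control effect; compound concentration not given in the record; the text of the record puts the active cut at -80%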
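TRPML1-DL cells, Tet-induced overnight (~16 h, 37 °C) at 1,500 cells/well, were loaded with Ca8 no-wash dye plus quencher for 45-90 min at room temperature. Compounds were pinned during FDSS kinetic reading; agonist 54-4 at EC80 (4 uM final) then added.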
Starred values were filed as active, the others as inactive; u = inconclusive; x = no result given; [ ] = dose if it differs, or a comment.

SMILES	TRPML1 ag	CtBP-E1A blk	D2 agonist	PINK1 expr mod	Six1-Eya2 blk	TRPML1 blocker
CCn1cc([N+](=O)[O-])c(=O)c2cc(F)c(N3CCOCC3)cc21	x	0	-2.7	0.7%	2	x
CC(=O)c1ccc(N2CCN(C(=O)c3ccc(Br)cc3)CC2)c(F)c1	0.0	5	-1.2	-1.3%	10	0
COc1ccc(C2=NN(C(=O)CCC(=O)O)C(c3ccccc3OC)C2)cc1 (centres undefined)	0.6	5	1.1	-0.4%	7	-4
O=C(Nc1ccc(Cl)cn1)Nc1ccc(Cl)cn1	-0.4	6	-6.3	11%	-3	-4
Cc1nc2ccc(S(=O)(=O)NCC(=O)NCCN3CCCCC3C)cc2s1 (centres undefined)	-0.1	5	-1.7	1.4%	-1	-4
O=C(/C=C/c1ccc(OCCCF)cc1)Nc1ccnc(-c2cccnc2)n1	1.0	-4	11	12%	-2	-6
Cc1ccc(Cn2cc(/C=C/C(=O)O)c(-c3ccccc3)n2)cc1	0.5	-1	-2.2	-0.6%	5	-6
NC(CCc1ccccc1)c1csc(Nc2ccccn2)n1 (centres undefined)	2.3	-83*	-3.5	7.0%	-73*	-20
O=C(NCc1ccc(F)cc1)C1CCN(S(=O)(=O)c2ccc3c(c2)OCCCO3)CC1	-0.8	10	-3.9	-0.2%	4	-13
N#CCOC(=O)c1sccc1-n1cccc1	1.4	-1	2.0	2.4%	-17	9
O=[N+]([O-])c1cc(CN2CCN(c3ccccc3)CC2)c(O)c2ncccc12	0.5	-95*	-4.7	0.5%	-91*	-9
CC(Sc1ccccc1)C(=O)NN=C1CCCCCC1 (centres undefined)	-0.1	7	5.1	-0.6%	0	28
O=C(CC1SC(N2CCCC2)=NC1=O)Nc1ccc(C(=O)NCCOc2ccccc2F)cc1 (centres undefined)	1.6	-17	1.7	-1.4%	10	-6
CCS(=O)(=O)N1CCC2(CC1)OC(=O)C(C)=C2C(=O)NCc1cccc(Cl)c1	-0.1	x	x	0.4%	x	0
CC1(C)CC(CC(=O)Nc2ccccn2)C(=O)O1 (centres undefined)	0.0	8	2.3	-9.0%[38.3 µM]	1	-1
COc1ccc(NC(=O)C2=NNC(=O)CC2)cc1S(=O)(=O)N1CCCCC1	0.3	0	3.1	1.2%	-11	27
CCOc1ccc(OCCCC(=O)O)cc1	-0.5	3	-3.1	-0.9%	3	7
COCCn1c(SCC(=O)Nc2sccc2C(N)=O)nnc1-c1ccncc1	0.8	2	3.6	-0.1%	0	-1
COc1ccc(C(=O)Nc2ccc(O)c3ccccc23)cc1	0.5	x	u	4.4%	1	3
O=C(COc1ccc(S(=O)(=O)N2CCCC2)cc1Cl)Nc1ccc2c(c1)OCO2	-0.1	2	0.9	u	2	-2
O=C(CSc1ccc(-c2ccccn2)nn1)NCc1ccccc1	0.5	u	-6.3	-1.1%	-76*	-1
Cc1cccc(C)c1NC(=O)c1ccc2sc([C@H]3C[C@H](O)[C@@H](CO)O3)nc2c1	-0.7	-13	5.8	1.0%	-19	x
Cc1[nH]c2ccccc2c1C1(O)C(=O)N(Cc2ccccc2Cl)c2ccccc21 (centres undefined)	-0.6	x	x	6.0%	x	0
C[C@H]1CN([C@@H](C)CO)S(=O)(=O)c2ccc(C3=CCCC3)cc2O[C@@H]1CN(C)C(=O)C1CCCCC1	-0.5	0	0.9	4.8%	5	-8
CCCn1c(SC/C(O)=C(\C#N)c2nc3ccccc3[nH]2)n[nH]c1=O	-0.2	4	-2.1	2.5%	-5	11
CCOc1cccc(CNC(=O)c2ccc(N3CCCC3)c(NC(=O)NCc3ccccc3)c2)c1	2.2	x	x	-1.8%	x	7
Cc1onc(-c2ccccc2Cl)c1C(=O)NC(=S)Nc1ccccc1C(N)=O	-1.6	-2	-12	0.3%	1	-8
COc1ccc(C2NC(=O)c3ccccc3O2)cc1OC (centres undefined)	0.8	-2	-0.3	-6.6%[38.3 µM]	4	13
Cc1cc(=O)[nH]c2nnc(-c3ccc(Cl)cc3)n12	-0.9	5	-2.5	5.5%	1	-11
CC(C)N(CC(O)COc1ccc(CC(N)=O)cc1)CC(O)COc1ccc(CC(N)=O)cc1 (centres undefined)	0.0	-11	0.7	0.0%	5	13
CC1=C(C(=O)OC2CCCCC2)C(c2ccccc2)NC(=O)N1 (centres undefined)	0.0	0	-2.9	-0.7%	-18	8
O=C(COc1ccccc1)Nc1ccc(CSc2ccccc2)cc1	4.0	6	-0.6	11%	6	-8
CCN(c1cccc(C)c1)S(=O)(=O)c1cn(CC(=O)OC)c2ccc([N+](=O)[O-])cc12	3.2	x	-4.8	13%	-3	3
O=C(CN1C(=O)NC2(CCCc3ccccc32)C1=O)Nc1cccc(S(=O)(=O)N2CCCCC2)c1 (centres undefined)	1.2	0	-2.3	-3.4%	-21	44
COc1ccc(NC(=O)c2cc(C3CCCCN3S(C)(=O)=O)on2)c(C)c1 (centres undefined)	-0.5	5	-4.5	0.8%	1	x
COc1ccc(NC(=O)CSc2nnc(C)n2C2CCCCC2)cc1	0.3	-2	-2.2	-2.6%	3	-12
O=C(OCC(O)COC(=O)c1cccnc1)c1cccnc1	2.8	x	-4.7	0.3%	-11	-9
O=C(Nc1nc(-c2ccco2)c(-c2ccco2)s1)C1CCC1	2.7	-14	1.0	u	-27	-4
Cc1ccccc1S(=O)(=O)Cc1ccc(C(=O)NCc2ccco2)o1	-0.5	7	0.7	0.3%	0	23
Cc1csc(NC(=O)c2cncc(Br)c2)n1	0.7	x	-4.6	1.9%	-2	32

Retrieved by compound from the list above (3):
SMILES	TRPML1 ag	CtBP-E1A blk	D2 agonist	PINK1 expr mod	Six1-Eya2 blk	TRPML1 blocker
CCN(c1cccc(C)c1)S(=O)(=O)c1cn(CC(=O)OC)c2ccc([N+](=O)[O-])cc12	3.2	x	-4.8	13%	-3	3
COc1ccc(NC(=O)c2cc(C3CCCCN3S(C)(=O)=O)on2)c(C)c1 (centres undefined)	-0.5	5	-4.5	0.8%	1	x
O=C(OCC(O)COC(=O)c1cccnc1)c1cccnc1	2.8	x	-4.7	0.3%	-11	-9

The list goes on.
SMILES	TRPML1 ag	CtBP-E1A blk	D2 agonist	PINK1 expr mod	Six1-Eya2 blk	TRPML1 blocker
CN(C)CCN1CCN(C2CN(Cc3ccc([N+](=O)[O-])cc3)S(=O)(=O)C2)CC1 (centres undefined)	-0.6	0	0.8	1.1%	-2	x
CC(/C=C/c1ccc2c(c1)OCO2)=N/NC(=O)c1cccnc1	0.0	5	1.1	-0.1%	-4	-3
COc1ccc([C@@H]2C[C@H](c3ccccc3)Oc3cc(OC)c(OC)c(OC)c32)cc1	0.9	-13	0.7	0.5%	-18	14
Cc1ccc(CNC(=O)c2nc(SCc3cccc(C)c3)ncc2Cl)cc1	0.5	x	x	4.6%	x	13
CCC(C)[C@H](NC(=O)Nc1ccc2c(c1)OCCO2)C(=O)OC (some centres undefined)	8.4	7	-1.4	0.4%	-2	19
CCC(=O)Nc1ccc2c(c1)nc(CCN1CCN(c3ccccn3)CC1)n2C	0.4	-10	u	0.2%	-9	9
Cc1ccc(N2CCCC2=O)cc1S(=O)(=O)N1CCOCC1	0.9	1	-11	-0.8%	5	-9
O=C(COC(=O)COc1cccc(Br)c1)NCc1ccc2c(c1)OCO2	-0.3	9	-1.1	-0.7%	7	-5
CCCCN=c1sc(C(=O)OC)cc(=O)n1CCCC	1.6	8	-1.2	-1.0%[38.3 µM]	3	-18
CCn1c2ccc(OC)cc2c2nc3ccccc3nc21	0.7	19	-2.1	-1.6%	21	-1
COc1ccc(S(=O)(=O)N2CCCCCC2)cc1Br	0.4	18	-3.9	5.0%	10	8
CCOC(=O)c1ccc(N2CN(C3CCCCC3)CNC2=S)cc1	-0.1	16	-6.0	4.3%	-11	-5
CCOc1ccc(OCC)c(S(=O)(=O)N2CCN(c3cccc(C)c3C)CC2)c1	4.8	x	x	0.3%	x	-8
Cc1ccc(S(=O)(=O)N(C)C)cc1NC(=O)CSc1nc2ncc(Cl)cc2[nH]1	0.4	0	0.1	u	-21	-11
O=C(NC1CCCCC1)C1CC(=O)N(c2cccc([N+](=O)[O-])c2)C1 (centres undefined)	-0.6	-9	1.1	-0.1%	4	-19
CC1CCN(C(=O)Cc2nn(C)c(=O)c3ccccc23)CC1	1.1	2	-0.6	-1.2%	4	23
FC(F)(F)C(F)(F)C(F)(F)c1nnc2ccc(N3CCOCC3)nn12	-0.6	-4	-4.1	-0.4%	0	-22
COc1cccc(OCC(=O)NNC(=S)Nc2ccc(Cl)cc2Cl)c1	-0.7	-7	-2.1	-1.0%	-5	12
Cc1ccc2c(c1)N(Cc1ccccc1)C(=O)C(C)O2 (centres undefined)	-1.0	1	-2.5	3.2%	9	x
Cc1nc2sc(C(c3ccccc3)N3CCN(C(=O)c4ccco4)CC3)c(O)n2n1 (centres undefined)	0.6	-5	-0.8	0.3%[38.3 µM]	-1	-1
COc1ccc(NS(=O)(=O)c2cc(NC(=O)CC(=O)c3ccc([N+](=O)[O-])cc3)ccc2C)cc1	-1.0	x	-0.7	8.5%	5	-2
O=C(Cn1ccc2cc(S(=O)(=O)N3CCCC3)ccc21)NCc1ccccc1Cl	1.4	x	x	19%	x	-17
N#Cc1c(N)c(C(=O)c2ccccc2)n2ccccc12	3.0	1	-3.8	0.1%	1	34
CCOc1ccc(/C=N\NC(=O)c2c(C)nc3cc(C)ccn23)cc1	0.3	5	4.5	3.8%	-19	20
COc1ccccc1N1CCN(C(=O)C(CC(C)C)NC(=O)C2CCCCC2)CC1 (centres undefined)	-1.5	13	-2.2	8.0%	10	-10
COc1cccc(C(=O)NCc2nc(-c3ccccc3)no2)c1OC	-1.0	x	x	4.1%	x	-7
Cc1ccccc1CNC(=O)c1oc2c(c1C)-c1[nH]ncc1CC2	2.6	x	x	-1.0%	x	-7
CC(=O)Nc1nnc(CSCc2ccc(F)cc2)s1	3.0	x	-2.5	-0.2%	-3	19
C=CCN(CC=C)C(=O)c1ccncc1	-0.1	-1	-0.6	-1.7%	11	19
Cc1cc(=O)oc2cc(OCC(=O)OCC(=O)N(C)C3CCS(=O)(=O)C3)ccc12 (centres undefined)	-0.6	4	-2.6	-0.1%	-3	-8
COc1ccc(NC(C)=O)c(C)c1	3.5	-15	-3.1	-1.8%	3	-1
Cc1onc(-c2c(F)cccc2Cl)c1C(=O)N1CCOC12CCCCC2	3.5	10	-2.2	1.0%	1	16
CS(=O)(=O)N1CCCC(C(=O)NCCCN2CCc3ccccc3C2)C1 (centres undefined)	0.8	1	0.1	19%[38.3 µM]	-1	2

Some of these compounds in order of length of the SMILES, ascending.
SMILES	TRPML1 ag	CtBP-E1A blk	D2 agonist	PINK1 expr mod	Six1-Eya2 blk	TRPML1 blocker
CC(=O)Nc1nnc(CSCc2ccc(F)cc2)s1	3.0	x	-2.5	-0.2%	-3	19
CCOc1ccc(/C=N\NC(=O)c2c(C)nc3cc(C)ccn23)cc1	0.3	5	4.5	3.8%	-19	20
O=C(Cn1ccc2cc(S(=O)(=O)N3CCCC3)ccc21)NCc1ccccc1Cl	1.4	x	x	19%	x	-17
